NPYLR7 ag – activates Aedes aegypti NPYLR7 receptor; HEK293T NPYLR7/Galpha15, GCaMP6s calcium fluorescence; AID 1259423; activation, % at 10 µM; hit rate 0.15% among 270,000; in the data active = activation above about 40%;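 note: 0% = vehicle and 100% = reference agonist at the receptor; some compounds past the cut are filed as inactive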
NPYLR7 ag max-min – also measured in NPYLR7 ag; calls as there; activation, %; measured here: Max-Min RFU normalised activation; some inactives read as strong as hits;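 span of the calcium signal over five minutes; 0% = vehicle and 100% = native peptide agonist; compound fluorescence can raise it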
Active calls of the source: *. These rows are one share of the data, so the mix of outcomes need not match the whole.

Results follow in this order: NPYLR7 ag, NPYLR7 ag max-min
CCCCN(Cc1cccn1Cc1ccc(Br)cc1)C(=O)CN(CCCOCC)S(=O)(=O)c1ccc(NC(C)=O)cc1
 : -8, 2
COc1ccc(C(=O)Nc2cccc(C)n2)cc1[N+](=O)[O-]
 : 1, -3
COc1cccc(-c2cc(C(=O)N3CCN(c4ccccc4C)CC3)c(C)n2-c2ccccc2F)c1
 : 10, 10
Cc1ccc(N(CC(=O)N2CCCCC2)S(=O)(=O)c2ccc(F)cc2)cc1
 : 14, 17
O=C(CSc1nnc(NC2CCCCC2)s1)C12CC3CC(CC(C3)C1)C2
 : 0, -3
CCCc1nc(NCc2cnn3cccnc23)c2cnn(C)c2n1
 : 14, 6
COc1cc(-c2cc(C(=O)N/N=C\c3cccs3)[nH]n2)ccc1OC(C)C
 : 0, -3
COc1cc2c(c(OC)c1OC)CCNC(=O)C2
 : 2, 1
CCS(=O)(=O)CC(C)NC(=O)c1cccc2cn[nH]c12 (stereo not given)
 : 1, 43
Clc1ccc(CSc2nnc(-c3ccco3)o2)cc1Cl
 : 0, -1
CS(=O)(=O)c1ccc(S(=O)(=O)Nc2ccccc2SC2CCCC2)cc1
 : 9, 5
COc1ccc(CC2CN(C(=O)CN3CCCCCC3)CCO2)cc1 (stereo not given)
 : 2, -2
CCC(C(=O)Nc1cc(-c2cn3nc(OC)ccc3n2)ccc1OC)c1ccccc1 (stereo not given)
 : -12, -15
CCOC(=O)c1ccc2c(c1)nc(SCc1ccccc1OC(F)F)n2CCOC
 : 2, -3
Cc1cccc(-n2nnnc2SCC(=O)Nc2cc(C)no2)c1
 : 8, 6

Other entries follow:
Results follow in this order: NPYLR7 ag, NPYLR7 ag max-min
CCOc1ccc(-n2nnc(C(=O)NC(C)C)c2COC)cc1
 : 3, 1
N#Cc1ccsc1NC(=O)CCCC(=O)O
 : 1, 3
Cc1cc(NC(=O)c2cc(Cl)sc2Cl)n(-c2nc3ccc(F)cc3s2)n1
 : -7, -14
CC(C)N(CCn1c(SCC(=O)Nc2ccc(N(C)C)cc2)nc2ccccc2c1=O)C(C)C
 : -4, -3
CCOC(=O)N1CCN(C(=O)CSc2nc(Cl)cc(N3CCN(C(=O)C4CCCC4)C(C)C3)n2)CC1 (stereo not given)
 : 8, 11
O=C(C1CCCCC1)N1CCC(NS(=O)(=O)Cc2ccc(F)cc2)CC1
 : 15, 12
C=C1C2(C(=O)N3CCC(COC)C3)CCC(C2)C1(C)C (stereo not given)
 : 3, 0
Cc1ccccc1NC(=O)Cn1cc(S(=O)(=O)c2ccc(F)cc2)c(=O)c2cc3c(cc21)OCO3
 : -2, -5
CC(C)(C)CC(=O)NCc1nc(CC(=O)Nc2ccccn2)no1
 : 1, 0
COC(=O)C1=C(C)N=c2s/c(=C/c3ccccc3)c(=O)n2C1c1ccc(OC(C)=O)cc1 (stereo not given)
 : 0, -2
c1cncc(Cn2ccnc2-c2ccncc2)c1
 : 3, 2
CCCS(=O)(=O)NC(=O)C1(C)CCN1C(=O)Cc1ccccc1 (stereo not given)
 : -2, -2
CCC(C(=O)NC1CCN(c2ccccc2C(=O)NCc2cccc(C(F)(F)F)c2)CC1)c1ccccc1 (stereo not given)
 : -8, -6
Cc1cc(-c2csc(-c3cccc(O)c3)n2)c(C)n1CC(F)(F)F
 : -2, -4
O=C(Nc1ccc2ncsc2c1)c1ccc(CSc2ccc3ccccc3n2)cc1
 : -6, -16

Four entries from above, with bars between the fields:
compound | NPYLR7 ag | NPYLR7 ag max-min
CCOc1ccc(-n2nnc(C(=O)NC(C)C)c2COC)cc1 | 3 | 1
N#Cc1ccsc1NC(=O)CCCC(=O)O | 1 | 3
Cc1cc(NC(=O)c2cc(Cl)sc2Cl)n(-c2nc3ccc(F)cc3s2)n1 | -7 | -14
CC(C)N(CCn1c(SCC(=O)Nc2ccc(N(C)C)cc2)nc2ccccc2c1=O)C(C)C | -4 | -3

The results go on.
Results follow in this order: NPYLR7 ag, NPYLR7 ag max-min
Cc1cc(C)n(CC(=O)N2CCc3onc(-c4ccc(F)c(F)c4)c3C2)n1
 : 3, 2
Cc1csc(SCc2csc(Cc3ccc4c(c3)OCO4)n2)n1
 : 15, 21
Cc1cccc(-c2cc(N)n(-c3ccc(C(=O)Nc4ccccc4C(C)C)cc3)n2)c1
 : 17, 8
CN(C)S(=O)(=O)c1ccc2c(c1)CCCN2Cc1cc2c(cc1O)OCO2
 : 8, 6
CCOC(=O)c1nn(-c2ccc(C)cc2)c(=O)cc1N1CCC(Cc2ccccc2)CC1
 : 6, 2
Cc1cnn(-c2cc(N/N=C\c3ccccc3)ncn2)c1
 : -13, -19
COc1ccc(C(C)=O)c(OCc2ccc(Cl)c(Cl)c2)c1
 : 3, 2
S=c1[nH]nc(C2C3CCCCC32)n1-c1ccc(Cl)cc1 (stereo not given)
 : -12, -17
C=CCNC(=O)c1ccccc1N1CCC(NC(=O)OC)CC1
 : -2, 6
CCCc1cc(=O)[nH]c(SCc2nc(-c3cccs3)no2)n1
 : 7, 7
Cc1csc(CCNC(=O)C2CC2c2ccc(Cl)cc2)n1 (stereo not given)
 : -19, -19
Cc1nnc(SCC(=O)Nc2ccc(F)cc2F)c2c1cnn2-c1ccc(F)cc1
 : -10, -16
CCOC(=O)N1CCN(C(=O)c2cc3n(n2)CCN(Cc2ccc(C(F)(F)F)cc2)C3=O)CC1
 : 12, 5
O=C(C1CCCN(Cc2cc3n(n2)CCNC3)C1)N1CCOCC1 (stereo not given)
 : 5, 1
Cc1ccccc1CO[C@]1(C(=O)NCC2CCCO2)CC(OCc2cccc(F)c2F)[C@H](O)[C@H](O)C1 (stereo not given in full)
 : 5, 6

Fetched one by one from the list above (five):
Results follow in this order: NPYLR7 ag, NPYLR7 ag max-min
Cc1nnc(SCC(=O)Nc2ccc(F)cc2F)c2c1cnn2-c1ccc(F)cc1
 : -10, -16
Cc1cnn(-c2cc(N/N=C\c3ccccc3)ncn2)c1
 : -13, -19
Cc1ccccc1CO[C@]1(C(=O)NCC2CCCO2)CC(OCc2cccc(F)c2F)[C@H](O)[C@H](O)C1 (stereo not given in full)
 : 5, 6
CN(C)S(=O)(=O)c1ccc2c(c1)CCCN2Cc1cc2c(cc1O)OCO2
 : 8, 6
COc1ccc(C(C)=O)c(OCc2ccc(Cl)c(Cl)c2)c1
 : 3, 2

The list goes on:
Results follow in this order: NPYLR7 ag, NPYLR7 ag max-min
CC1CN(C(C)CNC(=O)N2CCc3ccccc3C2)CC(C)O1 (stereo not given)
 : 0, -2
NC(c1csc(Nc2ccccn2)n1)C1CCCCC1 (stereo not given)
 : -12, -15
CC(Oc1cccc(-c2ccc3c(c2)OCCO3)c1)C(N)=O (stereo not given)
 : -1, 3
CN1OC(C)(CC(=O)N2CCOCC2)N=C1c1cccc(-c2ccccc2)c1 (stereo not given)
 : 6, 1
O=C(CCCSc1ccc(NC(=O)C2CC2)nn1)NCc1ccccc1
 : 0, 0
Cc1ccn2c(NC(C)(C)C)c(-c3ccc(C(C)(C)C)cc3)nc2c1
 : -5, 2
CC1(C)CC(=O)C=C(Nc2ccc3c(c2)OCO3)C1
 : -4, -5
Cc1cc(=O)oc(C)c1C(=O)NCCN(C)C
 : 10, 6
CCOC(=O)c1nn(-c2ccccc2C)c(=O)cc1OS(=O)(=O)c1ccc(C)cc1
 : 4, 11
O=C(NCCNC(=O)C1CCN(C(=O)c2ccc(F)cc2)CC1)c1ccccc1
 : 2, 21
CCC(C)N(Cc1cccnc1)C(=O)c1ccc(NC(C)=O)cc1Cl (stereo not given)
 : 6, 3
CN1CCC2(CC1)CN(C(=O)c1c[nH]c(=O)cn1)CCN2C
 : 6, 2
COc1cccc(CNc2ncn[nH]2)c1OCc1ccccc1Cl
 : -12, -18
CC(=O)N1CCN(CC(=O)N2N=C(c3cccc(C)c3)CC2c2ccc(Cl)cc2)CC1 (stereo not given)
 : 22, 25
COc1ccc(CNC(=O)CSc2nc(C)c(C)n2C2CC2)cc1OC
 : 8, 8

Additional results follow.
Results follow in this order: NPYLR7 ag, NPYLR7 ag max-min
Cc1ccc(OC(C)C(=O)N2CCc3ccc([N+](=O)[O-])cc32)cc1 (stereo not given)
 : 10, 4
COc1ccc2cc(C3CN(c4cncc(C(=O)N(C)C)n4)CCO3)ccc2c1 (stereo not given)
 : -1, -2
Nc1ccc(N2CCCC2=O)cc1
 : -5, -8
CCCCC(NC(=O)CCc1ccc(-c2ccc(C)cc2C)n1-c1ccc(CC#N)cc1)C(=O)OC (stereo not given)
 : 3, 0
O=S(=O)(NCCS(=O)(=O)c1ccc(F)cc1)NCc1ccccc1
 : 9, 9
CC(=O)c1cc(CC(=O)NC(C)c2cnn(-c3ccccc3C)c2C)cs1 (stereo not given)
 : 7, 3
O=C(Nc1ccc(-c2nc3ccccc3o2)cc1)c1ccccc1
 : 1, -1
C=CCOCC(O)CN(CC(=O)N1CCc2sccc2C1COc1ccc(OC)cc1)C1CC1 (stereo not given)
 : 6, 8
CN(Cc1ccccc1Br)C(=O)CCn1cnc2sc3c(c2c1=O)CCCC3
 : -2, -8
Cc1ccc(OCCN(C)S(=O)(=O)c2ccc3cn[nH]c3c2)cc1
 : -1, 12
C=CCCC(=O)N1CCc2cc(OC)c(OC)cc2C1c1ccc(OC)c(OC)c1 (stereo not given)
 : 13, 0
Cc1ccccc1[C@H]1[C@@H](C(=O)NCCN2CCOCC2)C[C@@](C)(C(=O)O)N1C
 : 20, 9
O=S(=O)(NCc1ccccc1)NC(Cn1ccnc1)c1ccccc1 (stereo not given)
 : 3, -5
O=C(NC1CCCC1)c1ccccc1OS(=O)(=O)C1=Cc2ccccc2CC1
 : -8, 716
O=C(NCCc1ccc2c(c1)OCCO2)C1CC2CCCC(C1)C2=O (stereo not given)
 : 1, 0

Continued, overlapping the part above by three compounds.
Results follow in this order: NPYLR7 ag, NPYLR7 ag max-min
O=S(=O)(NCc1ccccc1)NC(Cn1ccnc1)c1ccccc1 (stereo not given)
 : 3, -5
O=C(NC1CCCC1)c1ccccc1OS(=O)(=O)C1=Cc2ccccc2CC1
 : -8, 716
O=C(NCCc1ccc2c(c1)OCCO2)C1CC2CCCC(C1)C2=O (stereo not given)
 : 1, 0
CCCOC(=O)C1=C(C)NC2=C(C(=O)CCC2)C1c1ccccc1Br (stereo not given)
 : -14, -14
Cc1cc(C(=O)N2CCCC(C(=O)Nc3cccc(-c4ccc(F)cc4)c3)C2)no1 (stereo not given)
 : -8, -11
CCCCN=C(NC(=O)c1ccccc1F)OCCOC
 : 5, 8
CCSCCn1c(=O)n(Cc2ccc(F)cc2)c2ncc(C(=O)O)cc21
 : 10, -6
CCN(Cc1cnn(CC)c1)C(=O)c1ccc(NC(=O)C2CCC2)cc1
 : 24, 17
Cn1ccnc1SCC(=O)C12CC3CC(CC(C3)C1)C2
 : -1, -1
O=C(Nc1ccc(NC(=O)C2CC2)cc1C(F)(F)F)c1ccco1
 : -5, -8
Cc1cn2c3c(=O)[nH]c(=O)n(C)c3nc2n1CCN1CCCC1
 : 13, 10
COCc1cccc(C(=O)Nc2ccc(F)cc2C)c1
 : -1, -1
CN(C)Cc1ccc(C2CCCN2Cc2ccc(O)c(O)c2)cc1 (stereo not given)
 : -2, -3
COCCCNC(=O)C(NC(=O)c1cccc(C)c1)C1CCN(C(=O)c2ccc3c(c2)OCO3)CC1 (stereo not given)
 : -3, 5
Cc1cc(NC(=O)C(OC(=O)C2CC3CCCC(C2)C3=O)c2ccccc2)no1 (stereo not given)
 : 14, 8
CC1CCCN(C(=O)N2CCc3sccc3C2)C1 (stereo not given)
 : 2, 0
CCCNC(=O)NC(C(C)C)C1c2cc(OC)c(OC)cc2CCN1CC (stereo not given)
 : 36, 30
COc1ccccc1NS(=O)(=O)c1cc(F)ccc1F
 : 7, 12

The listing continues:
Results follow in this order: NPYLR7 ag, NPYLR7 ag max-min
O=c1ccc(=O)n(C2CCS(=O)(=O)C2)[nH]1 (stereo not given)
 : 7, 10
CCOc1ccc(NC(=O)C2CCCN(Cc3cccnc3OCC)C2)cc1 (stereo not given)
 : -2, -4
O=C(CSc1ccccc1)N1CCN(c2nc(Cc3ccccc3)nc3c2cnn3-c2ccccc2)CC1
 : -4, -2
Cc1ccc2nc(SCc3ccccc3F)nc(=O)n2c1
 : 4, 2
COC(C)(C)CC(C)NCc1noc(-c2ccco2)n1 (stereo not given)
 : 0, -5
NCc1ccccc1/C=C/c1ccccc1
 : -1, -10
O=c1c2cn[nH]c2nc(SCc2cccc([N+](=O)[O-])c2)n1-c1ccccc1
 : -8, -13
CCSc1nnc(CNC(=O)c2ccc(OC)cc2)n1CC
 : -1, -3
NCCCn1cc(Cl)cn1
 : 5, 4
CCCN1C(=O)C(NS(=O)(=O)c2ccc(N)cc2)(C(F)(F)F)C(C(=O)OC)=C1C (stereo not given)
 : 2, 1
COCCCN(Cc1c(-c2ccccc2)noc1N(C)C1CCCCC1)C(=O)Cc1ccccc1
 : -4, 13
CCOC(=O)CCC(=O)N1CCN(CC(OCc2ccc(C(F)(F)F)cc2)c2ccc(Cl)cc2)CC1 (stereo not given)
 : 4, 3
CCc1ccc(CN(C)C(=O)Cn2nnnc2CN(C)C(C)C)nc1
 : 0, -3
CCc1ccsc1C(=O)NCCC(=O)N1CCN(C(C)=O)CC1
 : 12, 9
CC(C)Oc1cccc(CN2CCN(c3ccnc(N(C)C)n3)CC2)c1
 : -2, -7

Look-ups from above.
`CC(=O)N1CCN(CC(=O)N2N=C(c3cccc(C)c3)CC2c2ccc(Cl)cc2)CC1` (stereo not given) in NPYLR7 ag max-min = 25
`COc1ccc(C(=O)Nc2cccc(C)n2)cc1[N+](=O)[O-]` in NPYLR7 ag = 1

Other compounds
Results follow in this order: NPYLR7 ag, NPYLR7 ag max-min
Cc1cc2ccccc2n1CCC(=O)NC1CCN(Cc2ccccn2)CC1
 : -13, -14
Cc1cn2c3c(=O)n(Cc4ccccc4)c(=O)n(C)c3nc2n1CCCO
 : -2, 15
COC(=O)C1CCN(CC(=O)Nc2ccc(N3CCCCC3)cc2)CC1
 : -7, 10
CC(Cc1ccncc1)NC(=O)CCc1nc(-c2ccccc2F)no1 (stereo not given)
 : -8, -16
CNC(=O)c1cnc(/C=C/c2cc(OC)c3c(c2)OCCO3)s1
 : -7, -8

Screening data from PubChem.
